Mtb growth: Mycobacterium tuberculosis H37Rv growth inhibition, cell based, confirmatory dose response (AID 1949); most inactive calls were filed without a number and no value below 0 was filed; inhibition, % at 10 µg/mL, or IC50 in µg/mL where a hit was titrated; M. tuberculosis H37Rv growth inhibition; 100,000 tested, 1.6% active;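 active = confirmed in a dose series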;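 note: bacteria grown 7 days with compound before Alamar blue readout; 0% = untreated bacteria and 100% = reference antibiotic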
* marks the source's active call; other numbers are inactive results.

For CCOc1ccccc1N(CC(=O)Nc1cccc(N(C)S(C)(=O)=O)c1)S(=O)(=O)c1ccc(C)cc1 the results were Mtb growth inactive.
Screening O=C(O)CC(NCc1cccnc1)C(=O)Nc1ccc(Cl)cc1 (stereo not drawn) returned Mtb growth inactive.
O=C(CSc1nnc(-c2ccncc2)n1-c1ccccc1)c1c[nH]c2ccccc12 was read as Mtb growth inactive.
Cn1c(CNC(=O)c2ccc(Cl)cc2)nnc1SCC(=O)Nc1ccc([N+](=O)[O-])cc1 was read as Mtb growth inactive.
CCOc1ccc(NC(=O)c2ccc(Cl)c(Cl)c2)c([N+](=O)[O-])c1 was read as Mtb growth 2%.
Screening Cc1cccc(C(=O)NCc2nnc(SCC(=O)Nc3nccs3)n2-c2ccccc2)c1 returned Mtb growth inactive.
For COc1ccc(OC)c(C(C)NC(=O)c2ccccc2I)c1 (stereo not drawn) the results were Mtb growth inactive.
O=C(CCc1ccccc1)Nc1ccccc1C(=O)N1CCOCC1 was read as Mtb growth inactive.
COc1cccc(NC(=O)CSc2nnc(-c3ccncc3)n2-c2ccc(C)cc2)c1 was read as Mtb growth inactive.
For CCOC(=O)C(C)Oc1ccc2c3c(c(=O)oc2c1)CCC3 (stereo not drawn) the results were Mtb growth 5%.
Cc1cc(Br)ccc1NC(=O)c1ccc2c(c1)C(=O)N(C(C)(C)C)C2=O was read as Mtb growth inactive.
Cc1ccc(C(=O)N2CCCc3ccccc32)cc1I was read as Mtb growth 13%.
Cc1cccc(NC(=O)CSc2n[nH]c(-c3ccccc3)n2)c1 was read as Mtb growth 0%.
`CCC(Sc1ncccn1)C(=O)Nc1nccs1` (stereo not drawn) gave Mtb growth 2%.
For O=C(NCCNS(=O)(=O)c1ccccc1[N+](=O)[O-])N1CCCCC1 the results were Mtb growth inactive.
`O=C(NCCc1ccccc1)C1CCN(Cc2cccc(Cl)c2)CC1` gave Mtb growth 1%.
`Cc1ccc(/C=C(/C#N)c2ccc([N+](=O)[O-])cc2)o1` gave Mtb growth inactive.
O=C(Nc1ccccc1OC(F)F)C(c1ccccc1)c1ccccc1 was read as Mtb growth inactive.
Screening CCOC(=O)CC1(C)OCC(C)(CC)CO1 (stereo not drawn) returned Mtb growth 1%.
For COC(=O)c1ccc2c(=O)n(Cc3ccco3)c(=S)[nH]c2c1 the results were Mtb growth 1%.
`COC(=O)C1=CNC=C(C(=O)OC)C1c1cccc([N+](=O)[O-])c1` gave Mtb growth inactive.
Screening CCc1ccccc1N(CC(=O)Nc1ccccc1C(C)C)S(=O)(=O)c1ccccc1 returned Mtb growth 7%.
For CCOc1ccc(C(=O)Nc2ccc(N3CCN(C(=O)c4cccs4)CC3)cc2)cc1Br the results were Mtb growth 6%.
Screening Cc1cc(Br)cc(C)c1OCC(=O)NCCC1=CCCCC1 returned Mtb growth 3%.
CCOC(=O)Cc1csc(NC(=O)c2cc(C)cc(C)c2)n1 was read as Mtb growth 35%.
Screening O=C(c1ccccc1Br)N1CCN(C2CCCCC2)CC1 returned Mtb growth inactive.
Screening O=C(CSc1nnc(-c2cccnc2)o1)c1c[nH]c2ccccc12 returned Mtb growth 0%.
CC(C)(C)c1ccc(S(=O)(=O)NCc2cccnc2)cc1 was read as Mtb growth inactive.
For Cc1[nH]c2ccccc2c1C(=O)C(=O)NCc1cccs1 the results were Mtb growth 3%.
Screening COC(=O)Nc1ccc(S(=O)(=O)Nc2cccc3ccccc23)cc1 returned Mtb growth inactive.
`N=c1n(CCO)c2ccccc2n1CCOc1ccc(F)cc1` gave Mtb growth 8%.
Screening N#Cc1c(NC(=O)c2ccccc2)sc(N)c1-c1ccc(Cl)cc1 returned Mtb growth 1%.
Screening CCCNC(=S)Nc1ccc2nc(-c3ccccn3)c(-c3ccccn3)nc2c1 returned Mtb growth inactive.
`CN1C(=O)C(O)(CC(=O)c2ccc(I)cc2)c2ccccc21` (stereo not drawn) gave Mtb growth inactive.
Screening COc1ccccc1-n1c(Cc2ccc(Cl)cc2)n[nH]c1=S returned Mtb growth inactive.
For O=C(CSc1nc2ccccc2c(=O)n1-c1cccc(C(F)(F)F)c1)NC1CC1 the results were Mtb growth 3%.
`COc1ccc(C2C3=C(CC(C)(C)CC3=O)Nc3[nH]c(=O)[nH]c(=O)c32)cc1OC` (stereo not drawn) gave Mtb growth inactive.
Screening CC(C(=O)O)N1C(=O)C2C3C=CC(C4CC34)C2C1=O (stereo not drawn) returned Mtb growth inactive.
Screening COCCNC(=O)c1c(NC(=O)c2oc3ccc(C)cc3c2C)sc2c1CCCC2 returned Mtb growth inactive.
Screening C=CCn1c(SCC(=O)c2ccc(Cl)cc2)nnc1-c1ccncc1 returned Mtb growth inactive.
For Cc1cc(C)n(-c2nc(C)nc3sc(-c4ccccc4)cc23)n1 the results were Mtb growth inactive.
For CSc1ccccc1C(=O)NC1CCCC1 the results were Mtb growth inactive.
Screening Cc1nc2ccc(C(C(F)(F)F)(C(F)(F)F)C(F)(F)F)cc2[nH]1 returned Mtb growth inactive.
Screening CS(=O)(=O)NCc1ccccc1Cl returned Mtb growth 1%.
COc1ccc(/C=C/C(=O)NC(c2ccccc2)c2ccccc2)cc1 was read as Mtb growth inactive.
Cc1cc(C)n(C(=O)Nc2cccc(Cl)c2)n1 was read as Mtb growth inactive.
For CCOC(=O)c1c(NC(=S)N2CCN(c3ncccn3)CC2)sc2c1CCCCCC2 the results were Mtb growth inactive.
`COc1ccc(CC(=O)Nc2ccc(C(=O)Nc3nccs3)cc2)cc1OC` gave Mtb growth inactive.
Screening O=S(=O)(NCc1ccccc1)N1CCCCCC1 returned Mtb growth inactive.
CCC(SC1=NCCS1)C(=O)Nc1ccc(-c2nc3ccc(C)cc3s2)cc1 (stereo not drawn) was read as Mtb growth 4%.
For O=C(Nc1ccccc1Sc1ccccc1)c1ccc(Cl)c(S(=O)(=O)N2CCOCC2)c1 the results were Mtb growth inactive.
`CC(C)(C)NC(=O)CCC1COc2ccccc2O1` (stereo not drawn) gave Mtb growth inactive.
COc1ccc(Cc2nnc(NC(=O)C3c4ccccc4Oc4ccccc43)s2)cc1OC was read as Mtb growth 3%.
For Cc1c(C)c2cc(Cl)c(OCc3cc4c(cc3Cl)OCO4)cc2oc1=O the results were Mtb growth 2%.
`CC1(C)CC(=O)C2=C(C1)c1oc(N)nc1C2c1ccc(-c2ccc(F)cc2)o1` (stereo not drawn) gave Mtb growth 3%.
O=C(O)c1cccc(NS(=O)(=O)c2cccc3cccnc23)c1 was read as Mtb growth inactive.
COc1ccc(-c2[nH]c(-c3ccc([N+](=O)[O-])cc3)nc2-c2ccccc2)cc1 was read as Mtb growth 2.3µg/mL*.
O=C(CSCC(=O)Nc1cccc(Br)c1)Nc1cccc(Cl)c1 was read as Mtb growth inactive.
CSc1ccccc1C(=O)Nc1ccc(S(=O)(=O)N2CCCCCC2)cc1 was read as Mtb growth inactive.
For NC(=O)c1sc2nc3c(c(-c4cccs4)c2c1N)CCCC3 the results were Mtb growth 1%.

Gathered by group: the entries above containing bromine
Cc1cc(Br)ccc1NC(=O)c1ccc2c(c1)C(=O)N(C(C)(C)C)C2=O was read as Mtb growth inactive.
For CCOc1ccc(C(=O)Nc2ccc(N3CCN(C(=O)c4cccs4)CC3)cc2)cc1Br the results were Mtb growth 6%.
Screening Cc1cc(Br)cc(C)c1OCC(=O)NCCC1=CCCCC1 returned Mtb growth 3%.
Screening O=C(c1ccccc1Br)N1CCN(C2CCCCC2)CC1 returned Mtb growth inactive.
O=C(CSCC(=O)Nc1cccc(Br)c1)Nc1cccc(Cl)c1 was read as Mtb growth inactive.

The listing picks up, starting 3 compounds before the break.
O=C(CSCC(=O)Nc1cccc(Br)c1)Nc1cccc(Cl)c1 was read as Mtb growth inactive.
CSc1ccccc1C(=O)Nc1ccc(S(=O)(=O)N2CCCCCC2)cc1 was read as Mtb growth inactive.
For NC(=O)c1sc2nc3c(c(-c4cccs4)c2c1N)CCCC3 the results were Mtb growth 1%.
Screening Cc1cc([N+](=O)[O-])ccc1NC(=O)CSc1nnc(COc2ccc(C(C)C)cc2)o1 returned Mtb growth inactive.
O=c1[nH]c(=O)c2nc(-c3ccccc3)c(-c3ccccc3)nc2[nH]1 was read as Mtb growth inactive.
For Cc1[nH]c2ccccc2c1C(=O)C(=O)NCc1ccccc1F the results were Mtb growth 0%.
For O=S(=O)(Nc1cccc(Cl)c1)c1ccc(NS(=O)(=O)c2ccc3c(c2)OCCO3)cc1 the results were Mtb growth inactive.
For CCNCc1ccccc1OCC(=O)Nc1ccccc1OC the results were Mtb growth inactive.
COc1cc(CNC(=O)c2cccc(COc3ccc(Cl)cc3)c2)cc(OC)c1 was read as Mtb growth inactive.
CC(=O)Nc1ccc(NC(=O)COc2c(C)cc(Br)cc2C)cc1 was read as Mtb growth inactive.
CN(c1ccccc1)S(=O)(=O)c1ccc(C(C)(C)C)cc1 was read as Mtb growth 3%.
Screening COc1cc(C=O)c(Br)cc1OC(C)C returned Mtb growth inactive.
O=C(O)c1ccc(NS(=O)(=O)c2cccc(C(F)(F)F)c2)cc1 was read as Mtb growth inactive.
`Cc1ccc(CSCC(=O)Nc2ccccc2C(C)C)cc1` gave Mtb growth 1%.
Screening CCn1c(/C=C/c2cccc([N+](=O)[O-])c2)nc2ccc(I)cc2c1=O returned Mtb growth inactive.
CC(C)CCn1cnc2sc3c(c2c1=O)CCC(C)C3 (stereo not drawn) was read as Mtb growth 11%.
For CCn1cnc2scc(-c3ccccc3)c2c1=O the results were Mtb growth 0%.
COc1ccc(Cl)cc1NC(=O)C12CCC(C)(C(=O)C1=O)C2(C)C (stereo not drawn) was read as Mtb growth inactive.
`COCc1nc2ccccc2n1CCOc1ccc(OC)cc1` gave Mtb growth 1%.
C=CCSC1=C(C#N)C2(CCCC2)C(C#N)C(=O)N1 (stereo not drawn) was read as Mtb growth inactive.
Screening Cc1ccc(N(C(C)C(=O)Nc2ccccc2C(=O)NCCc2ccccc2)S(C)(=O)=O)cc1 (stereo not drawn) returned Mtb growth inactive.
Screening Brc1ccc(OCCN2CCCCC2)cc1 returned Mtb growth inactive.
Screening O=C(c1ccncc1)N1CCN(Cc2ccco2)CC1 returned Mtb growth inactive.

Six consecutive records out of the list so far, for reference:
Screening Cc1cc([N+](=O)[O-])ccc1NC(=O)CSc1nnc(COc2ccc(C(C)C)cc2)o1 returned Mtb growth inactive.
O=c1[nH]c(=O)c2nc(-c3ccccc3)c(-c3ccccc3)nc2[nH]1 was read as Mtb growth inactive.
For Cc1[nH]c2ccccc2c1C(=O)C(=O)NCc1ccccc1F the results were Mtb growth 0%.
For O=S(=O)(Nc1cccc(Cl)c1)c1ccc(NS(=O)(=O)c2ccc3c(c2)OCCO3)cc1 the results were Mtb growth inactive.
For CCNCc1ccccc1OCC(=O)Nc1ccccc1OC the results were Mtb growth inactive.
COc1cc(CNC(=O)c2cccc(COc3ccc(Cl)cc3)c2)cc(OC)c1 was read as Mtb growth inactive.

(more compounds)
Screening COc1ccc([N+](=O)[O-])cc1CSc1nnc(NC(=O)c2ccccc2OC)s1 returned Mtb growth inactive.
`CCOc1ccc(N2CC(C(=O)Nc3ccccc3OC)CC2=O)cc1` (stereo not drawn) gave Mtb growth inactive.
Screening Cc1c(C(=O)Nc2ccc(Cl)cc2)sc(N)c1C(=O)OC(C)C returned Mtb growth 7.9µg/mL*.
COc1ccc(N2CCN(C(=O)CN(C)S(=O)(=O)c3ccc(Cl)cc3)CC2)cc1 was read as Mtb growth inactive.
Fc1ccc(CNC(=S)NC2CCCC2)cc1 was read as Mtb growth inactive.
For CCN(CC)CCNC(=S)Nc1ccc(Cl)cc1 the results were Mtb growth inactive.
Cc1sc2nc(SCc3cc(=O)[nH][nH]3)nc(N)c2c1C was read as Mtb growth inactive.
For CC(C)(C)CC(=O)NC(=S)NCC1CCCO1 (stereo not drawn) the results were Mtb growth inactive.
Screening CCc1cc(OCCN(C)C)ccc1Cl returned Mtb growth inactive.
For CCOC(=O)c1c(NC(=O)c2sc3cc(C)ccc3c2Cl)sc(C(=O)N(CC)CC)c1C the results were Mtb growth inactive.
`COc1ccc(OC)c(C2NC(=S)NC3=C2CCc2ccccc23)c1` (stereo not drawn) gave Mtb growth inactive.
COc1ccccc1C1=Nc2cccc3cccc(c23)N1 was read as Mtb growth 0.24µg/mL*.
Screening O=C(O)c1cccc(NC(=O)c2ccc3c(c2)C(=O)N(C2CCCCC2)C3=O)c1 returned Mtb growth inactive.
For Cn1c(SCC(=O)O)nnc1-c1ccccc1 the results were Mtb growth inactive.
Cc1noc(C)c1C(=O)Nc1sc2c(c1C(N)=O)CCCCC2 was read as Mtb growth inactive.
`CCN(CC)C(=O)C1=C(C)NC(=S)NC1c1ccccc1Cl` (stereo not drawn) gave Mtb growth inactive.
For CCN1CCN(S(=O)(=O)c2cc(Cl)c(OC)cc2Cl)CC1 the results were Mtb growth inactive.
Screening Cc1cccc(N2CCN(C3=NC(=O)C(=C4CCCCC4)S3)CC2)c1 returned Mtb growth 0.78µg/mL*.
`COc1ccc(OCCCC(=O)Nc2ccc(S(=O)(=O)Nc3ncccn3)cc2)cc1` gave Mtb growth 2%.
Screening CCOc1ccc2nc(NC(=O)CSc3nnc4c5ccccc5n(C)c4n3)sc2c1 returned Mtb growth inactive.
`COc1cc(Cl)c(C)cc1NC(=O)COc1ccc(C)cc1` gave Mtb growth inactive.
Screening Cc1ccc(C(=O)Nc2ccc(-c3nc4ccccc4[nH]3)cc2)c(C)c1 returned Mtb growth inactive.
For CCOC(=O)c1cnc2c(Cl)c(Cl)ccc2c1N1CCN(Cc2ccccc2)CC1 the results were Mtb growth 3%.
`Cc1ccc(NC(=O)C2(c3ccccc3)CCOCC2)c(C)c1` gave Mtb growth inactive.
COc1ccc(N2CCN(C(=O)c3ccc(C)cc3C)CC2)cc1 was read as Mtb growth inactive.
For CCOC(=O)c1c(N)n(Cc2ccccn2)c2nc3ccccc3nc12 the results were Mtb growth inactive.
Screening N#Cc1ccc(NC(=O)C23CC4CC(CC(C4)C2)C3)cc1 returned Mtb growth 24µg/mL*.
`COC(=O)C1=C(C)NC2=C(C(=O)CCC2)C1c1cccc(Oc2ccccc2)c1` (stereo not drawn) gave Mtb growth inactive.
`Cc1cccc(OCCn2c(CCCNC(=O)C(C)(C)C)nc3ccccc32)c1` gave Mtb growth 3%.
Screening CC(C)(Oc1ccc(Cl)cc1)C(=O)N1CCN(c2cccc(C(F)(F)F)c2)CC1 returned Mtb growth 13%.

Screening data as filed in PubChem BioAssay.

An excerpt (hit frequency here may not be typical).
